PrP UTR inh – inhibition of PrP 5' UTR reporter expression. cell-based PrP 5' UTR mRNA reporter, plate reader. inhibition, % (no concentration beside the values). actives 0.35% (n = 340,000). AID 488862, 2010;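 active = every replicate at 50% or more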;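 also: 0 = median of the neutral control wells; tested in H4 reporter cells; numbers are from one replicate; inactives centre near -14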
Autofluor counter – compound fluorescence in toxin protease inhibitor counterscreen; compound autofluorescence counterscreen, microsphere flow cytometry; stronger effect = higher value; fluorescence intensity (concentration not given with the values); actives 3.1% (n = 360,000);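 active = at least 3 SD above the mean of all compounds, about 16000 in these data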;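 also: 100 nL of 1 mM stock went into each well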
* hit, by the source's call; & = joins results of further samples.

SMILES	PrP UTR inh	Autofluor counter
COc1ccc(OC)c(/C=C/C(=O)OCC(=O)Nc2nnc(-c3ccccc3)o2)c1	3.4	4192
O[C@@H]1[C@@H](O)C=C2CCN3Cc4cc5c(cc4[C@H]1C23)OCO5 (stereo partly specified)	-65.8	4111
COC(=O)c1c(-c2ccc(OC)cc2)sc2cc3c(cc12)OCO3	-42.1	4227
C[C@@H]1CN([C@@H](C)CO)C(=O)Cc2cc(NC(=O)Nc3ccc(C(F)(F)F)cc3)ccc2O[C@@H]1CN(C)S(=O)(=O)c1ccc(Cl)cc1	-2.1	3765
COc1ccc(CN2CC(=O)N3[C@H]4c5cc(C)ccc5OC[C@@H]4[C@H](c4ccccc4)[C@]3(C)C2=O)cc1	0.0	3406
COc1ccc2c(-c3ccc(SC)cc3)c(-c3ccc(S(C)(=O)=O)cc3)sc2c1	1.8	2930
O=C1C=C(c2ccccc2)C[C@@H](c2ccc(Cl)cc2)C1	-47.7	4145
COc1ccc(C(=O)N2[C@@H](C(C)C)COc3cc(Br)ccc3S2(=O)=O)cc1	-11.7	3560
N#CC(OC(=O)c1ccccc1)c1ccccc1 (stereo unspecified)	-5.5	5749
NC(=O)C1CC(=O)N(c2ccc(OCC(=O)N3CCCC3)cc2)C1 (stereo unspecified)	-17.1	4059
O=C(C[C@@H]1C/C=C\CC[C@@H](Cc2ccc(F)cc2)C(=O)OC[C@@H]2CCCN2C1=O)N[C@H](CO)Cc1ccccc1	4.2	2985
COC(=O)C1=C(c2cccc(OCc3ccccc3)c2)C[C@@H]2CC[C@H]1N2C(=O)NC1CCN(Cc2ccccc2)CC1	-15.8	4282
O=C1c2nccnc2C(=O)N1Cc1ccccc1	-7.4	2784
C/C(=N\NC(=O)c1ccncc1)c1cccc(NC(=O)c2ccc(Cl)s2)c1	-16.9	5482
CC(CCC(C)C(C)(C)C)[C@@H]1CC[C@H]2C3C[C@H](OS(O)(=S)=S)[C@H]4C[C@H](OS(O)(=S)=S)[C@@H](OS(O)(=S)=S)C[C@]4(C)[C@H]3CC[C@]12C (stereo partly specified) (tested in a mixture with another compound)	-19.5	3020
O=C1CC(=O)N(c2ccccc2)C(=O)N1	3.2	3033
OCC1OC(n2cnc3c(SCc4ccccc4)ncnc32)C(O)C1O (stereo unspecified)	-20.3	3275
COC(=O)C1=C(c2c(C)noc2C)C[C@@H]2CC[C@H]1N2C(=O)NCc1ccc2c(c1)OCO2	-1.8	3814
CCCCC(C)Sc1nc2c([nH]1)c(=S)n(C)c(=O)n2C (stereo unspecified)	-20.9	4295
CCOC(=O)c1cccc(C2=CC(=O)C[C@H](c3ccc(OC)c(OC)c3)C2)c1	8.3	4244
Cc1ccc2c(nc3s/c(=C/c4cccs4)c(=O)n32)c1C	-92.5	4145
OCC[C@H]1C[C@H](O)[C@@H](O)[C@@]2(CCc3ccccc3O2)O1	-19.5	3737
Cc1ccc([C@@H]2CC=C(C(=O)O)CN2S(=O)(=O)c2ccc(C)cc2)cc1	-7.7	4004
CN(N=Nc1nc[nH]c1C(=O)NN)C1CCCCC1	3.4	4149
C[C@H](CO)N1C[C@H](C)[C@@H](CN(C)Cc2ccncc2)Oc2ccc(NC(=O)CCCCCC(=O)Nc3ccccc3N)cc2C1=O	-7.6	3893
COC(=O)C1=C(c2cccc(OC)c2OC)C[C@@H]2CC[C@H]1N2C	-15.6	3596
Clc1cccc(CN2CCC3CC2c2cc(N4CCCCC4)ccc23)c1 (stereo unspecified)	-16.6	10796
COc1ccc(NC(=O)Nc2ccc3c(c2)C(=O)N([C@H](C)CO)C[C@H](C)[C@@H](CN(C)S(=O)(=O)c2ccccc2)O3)cc1	-9.1	3186
Cc1ccc(CNC(=O)CCn2cc(-c3ccc(C)cc3)nc2CCN)cc1	-23.3	3023
CCCCCCSc1cccc(-c2nc3ccccn3c2NCc2ccccc2)c1	-1.9	4262&6394
COC(=O)[C@@]12CCCCN1[C@H](c1ccc(-c3ccc(Cl)c(Cl)c3)cc1)[C@H]1C(=O)N(C)C(=O)[C@H]12	-10.6	3772
O=C(CN1CCC(NC(=O)C2CCCCC2)CC1)Nc1ccccc1	-18.0	2921
C[C@@]12C(=O)N(Cc3ccc(F)cc3)CC(=O)N1[C@H]1c3cc(Cl)ccc3OC[C@@H]1[C@@H]2c1ccccc1	-21.3	3790
C=C1CC(COc2ccc3c(C)c(Cl)c(=O)oc3c2)(c2ccccc2)OC1=O (stereo unspecified)	-15.5	2973
N[C@@H](CCC(=O)N[C@@H](CSN=O)C(=O)NCC(=O)O)C(=O)O	-49.9	6108
C[C@H]1NC(=O)[C@@]2(C)[C@@H](c3ccccc3)[C@H]3COc4ccccc4[C@@H]3N2C1=O	-26.4	4076
CCN1C(=O)[C@@H]2[C@@H](c3ccc(-c4ccc(F)cc4)c(OC)c3)N3CCCC[C@@]3(C(=O)OC)[C@@H]2C1=O	-17.2	7870
OC[C@H]1OC(O)[C@H](O)[C@@H]1O (stereo partly specified)	-18.1	5449
O=C(O)/C=C1\CCCc2ccccc2C1O (stereo unspecified)	-2.5	5660
C[C@H](CO)N1C[C@H](C)[C@@H](CN(C)S(=O)(=O)c2ccccc2)Oc2c(NS(=O)(=O)c3ccccc3)cccc2C1=O	-20.3	3561
O=C(C[n+]1ccccc1)N/N=C/c1cc(Br)ccc1F	1.4	3959
CCC(C)C(N)C(=O)N1CCCC1C(=O)NC(C(=O)O)C(C)CC (stereo unspecified)	-28.3	5506
CC(C)C[C@H]1CN([C@@H](CC(C)C)CN2CCC[C@@H]2CN2C(=O)C(=O)NC[C@@H]2Cc2ccccc2)C(=O)C(=O)N1CCc1ccccc1	-17.4	3093
CC(=O)Cc1nsc(Nc2cccc(C)c2)n1	-5.4	3296
O=C1CCCC/C=C\C[C@H](CC(=O)N(CCO)Cc2ccccc2)C(=O)N[C@@H](c2ccccc2)CO1	-17.3	3488

Whole records, looked up by structure. Order of values: PrP UTR inh	Autofluor counter
N[C@@H](CCC(=O)N[C@@H](CSN=O)C(=O)NCC(=O)O)C(=O)O reads -49.9	6108
CCC(C)C(N)C(=O)N1CCCC1C(=O)NC(C(=O)O)C(C)CC (stereo unspecified) reads -28.3	5506

The listing continues.
SMILES	PrP UTR inh	Autofluor counter
CCOC(=O)[C@H]1[C@H]2COc3cc(OC)ccc3[C@@H]2N2C(=O)CN(Cc3ccccc3)C(=O)[C@@]12C	-19.2	4156
CCN(CC)Cc1cc(Nc2c3ccccc3nc3c4ccccc4n(C)c23)cc(CN(CC)CC)c1O	-18.8	2580
CC(=NNC(=S)Nc1cccc(C)c1)c1ccccn1	51.8	4151
COc1ccc(S(=O)(=O)Nc2ccc3c(c2)C(=O)N([C@H](C)CO)C[C@H](C)[C@@H](CN(C)C(=O)Nc2ccc4c(c2)OCO4)O3)cc1	-16.7	4335
COC(=O)C1=C(c2cccc(C#N)c2)C[C@@H]2CC[C@H]1N2C(=O)NCc1cc(C)oc1C(F)(F)F	-3.2	2966
CCOc1cc(/C=N/NC(=O)c2cccnc2)ccc1OCC(N)=O	-9.6	4577
CC(C)CC(=O)c1c(O)c(C=O)c(O)c2c1O[C@@]1(C)[C@@H](C2)C[C@H]2C[C@@H]1C2(C)C	-5.7	3009
Cc1cn([C@H]2C[C@H](O)[C@@H](CCC(=O)NC(c3ccccc3)c3ccccc3)O2)c(=O)[nH]c1=O	-7.7	3380
CN(C)c1ccc(Cc2cc3c(O)ccc(O)c3cc(Cc3ccc(N(C)C)cc3)c2=O)cc1	-7.4	2968
Cc1cc(C(=O)O[C@H]2[C@H](Cc3ccccc3)NS(=O)(=O)[C@H]3C[C@@H]4C=C[C@]23O4)ccc1[N+](=O)[O-]	-50.0	2766
COc1ccccc1CN1Cc2cccc3c2[C@@H](CC1=O)[C@H](O)[C@H](O)C3	-13.0	3405
COc1ccc(S(=O)(=O)Nc2cccc3c2O[C@H](CN(C)Cc2ccccc2)[C@@H](C)CN([C@H](C)CO)C3=O)cc1	-11.3	2846
O=C(O)C1(O)C[C@@H](O)C(O)[C@H](O)C1 (stereo partly specified)	-29.2	6318
C=CC[C@H](CC(=O)N(CCO)Cc1ccccc1)C(=O)N[C@H](C)COC(=O)[C@@H](CC=C)Cc1ccc(F)cc1	-15.0	3922
Cc1noc(C)c1NC(=O)Nc1cccc2c1O[C@H](CN(C)C(=O)Nc1ccc(C(F)(F)F)cc1)[C@@H](C)CN([C@H](C)CO)C2=O	-15.6	3849
COc1cccc(OC)c1C1=CC(=O)C[C@H](c2ccc3c(c2)OCO3)C1	-12.1	4205
COc1cc(/C=N/NC(=O)c2ccc(Cl)cc2)ccc1OCC(=O)N1CC(C)OC(C)C1 (stereo unspecified)	-12.9	3426
C#CCOCCOCCOCCNc1nc(N2CCN(C(=O)Cn3cc(CCO)nn3)CC2)nc(N2CCN(C(=O)Cn3cc(CCCCN)nn3)CC2)n1	-19.0	4047
O=C1CSC(=S)N1N=Cc1ccc2c(c1)OCO2	-17.1	3262
O=C1C=C(c2ccc(C(=O)O)cc2)C[C@@H](c2ccc3c(c2)OCO3)C1	-26.1	2977
COc1cc(/C=N/Nc2ccc(Cl)cc2)ccc1OC(=O)c1cccs1	-11.9	2701
C[N+](C)(C)CCOC(=O)CBr	-13.0	5037
CCCC(=O)Nc1ncnc2c1ncn2[C@@H]1O[C@@H]2OP(=O)(O)OC[C@H]2[C@H]1OC(=O)CCC	-8.4	4174
COc1ccc([C@H]2CC(=O)C=C(c3ccc4ccccc4c3)C2)cc1OC	-14.9	4397
COC(=O)C1=C(C)N(Cc2ccccc2)C(=NCC2CC2)N[C@H]1c1ccccc1	-14.2	6371
COc1ccc(SC[C@H](Cc2ccccc2)N2CC[C@@H](NC(=O)OCc3ccccc3)CCC2=O)cc1	-6.8	3612
CC(Cc1ccccc1)N(C)CC1C(=O)C2CCC1C2 (stereo unspecified)	-20.1	4349
COc1cccc(C2=CC(=O)C[C@H](c3ccc(F)cc3)C2)c1	-13.8	3832
Cc1ccc(NC(=O)CN(C)C(=O)c2ccc(NS(=O)(=O)c3cccc([N+](=O)[O-])c3)cc2)cc1	-3.0	2748
Nc1cc(=O)[nH]c2ncnn12	7.8	2860
COC(=O)C1=CO[C@@H](C)[C@H]2CN3CCc4c([nH]c5ccccc45)[C@@H]3C[C@H]12	-20.7	4112
O=C1C=C(c2ccc(F)cc2OCc2ccccc2)C[C@@H](c2ccc3c(c2)OCO3)C1	-0.3	3051
O=C(O)[C@@H]1CCCN(S(=O)(=O)c2cccc3cccnc23)C1	-2.7	4263
CN(C)/C(=C\C(=O)c1ccccc1)C(=O)c1ccccc1	-24.9	3792
CCOC(=O)[C@H]1[C@H]2COc3ccc(Br)cc3[C@@H]2N2C(=O)CN(Cc3ccc(F)cc3)C(=O)[C@@]12C	-14.5	4030
C#CCOCCOCCOCCNc1nc(N2CCN(C(=O)[C@H](CCCCN)n3cc(CCC(=O)O)nn3)CC2)nc(N2CCN(C(=O)[C@H](CCCCN)n3cc(CC(C)O)nn3)CC2)n1 (stereo partly specified)	-20.8	4048
COC(=O)C1=C(c2ccc(OC(F)(F)F)cc2)C[C@@H]2CC[C@H]1N2C(=O)N1CCCCC1	-9.6	3837
O=C(c1ccc(S(=O)(=O)Nc2ccccc2F)cc1)N1CCN(c2ccccn2)CC1	4.7	5767
C[C@H]1COC(=O)[C@@H](Cc2ccc(F)cc2)CC/C=C/C[C@@H](CC(=O)N(CCO)Cc2ccccc2)C(=O)N1	-15.5	3524
O=C1Nc2ccc3c(c2C1=Cc1cc2c(cc1Br)OCO2)OCO3	-1.4	3738
Cc1ccc(OCCn2c(=S)[nH]c3c(N)ncnc32)cc1	-13.7	3143
Nc1nnc(CC(=O)N/N=C/c2cc([N+](=O)[O-])cc(Br)c2O)s1	-17.0	2517
C=CC[C@H](CC(=O)N[C@H](CO)Cc1ccccc1)C(=O)N[C@@H](COC(=O)[C@@H](CC=C)Cc1ccc(F)cc1)Cc1c[nH]c2ccccc12	2.3	4400
C[C@H](NC(=O)c1ncn(Cc2ccccc2)c1C(=O)N[C@@H](C)c1ccccc1)c1ccccc1	-14.1	2856
COC(=O)C1=C(c2ccc(F)cc2OCc2ccccc2)C[C@@H]2CC[C@H]1N2C(=O)N1CCCC1	-23.3	3990
O=C(CNc1ccccc1F)N/N=C/C1CC=CCC1 (stereo unspecified)	1.6	4037
CCCCCCSc1ccc([C@@H]2[C@H]3C(=O)N(CC)C(=O)[C@H]3[C@]3(C(=O)OC)CCCCN23)cc1	-10.5	4353
COC(=O)[C@@]12CCCCN1[C@H](c1ccc(-c3cc(C(C)=O)cs3)c(OC)c1)[C@H]1C(=O)N(C)C(=O)[C@H]12	-13.2	4062
Oc1ccccc1-c1nnco1	0.3	3994
O=C(NNC(=O)c1ccccc1O)c1ccccc1O	58.9*	3961
COC(=O)C1=C(c2ccc(F)cc2OCc2ccccc2)C[C@@H]2CC[C@H]1N2C(=O)N1CCOCC1	-9.9	4167

In another format: entries from further up
mol,PrP UTR inh,Autofluor counter
COC(=O)[C@@]12CCCCN1[C@H](c1ccc(-c3cc(C(C)=O)cs3)c(OC)c1)[C@H]1C(=O)N(C)C(=O)[C@H]12,-13.2,4062
Oc1ccccc1-c1nnco1,0.3,3994

Four of these compounds in a different format.
Each structure is followed by: PrP UTR inh, Autofluor counter
Oc1ccccc1-c1nnco1
  0.3, 3994
COC(=O)C1=C(c2ccc(F)cc2OCc2ccccc2)C[C@@H]2CC[C@H]1N2C(=O)N1CCOCC1
  -9.9, 4167
O=C(NNC(=O)c1ccccc1O)c1ccccc1O
  58.9*, 3961
CCCCCCSc1ccc([C@@H]2[C@H]3C(=O)N(CC)C(=O)[C@H]3[C@]3(C(=O)OC)CCCCN23)cc1
  -10.5, 4353

The list is partial, so the mix of outcomes need not match the whole.
